Screening results: PubChem, National Center for Advancing Translational Sciences (NCATS)
StopGo RLuc: lowers the Renilla signal of an FMDV 2A StopGo reporter; HEK cells with a luciferase reporter of 2A StopGo recoding; Potency, µM (top dose mostly 57.5 µM), inactives show at the highest dose signal change, negative = less light; actives 0.32% (n = 120,000); active means well fitted falling curve with a large enough effect; inconclusive means small, poorly fitted or top-dose-only effect; inactive means no such curve, though single readings can be large or run the other way; also: nearly all actives have a fitted effect of over 55% in size; overnight with compound
2A firefly: FMDV 2A StopGo reporter, firefly signal. HEK cells with a luciferase reporter of 2A StopGo recoding. Potency, µM (doses to about 57.5 µM), for inactives: at the top dose signal change, negative = less light. actives 0.23% (n = 120,000). AID 1745856; active = well fitted falling curve with a large enough effect; inconclusive = small, poorly fitted or top-dose-only effect; inactive = no such curve, though single readings can be large or run the other way; also: nearly all actives have a fitted effect of over 60% in size; overnight with compound
* hit, by the source's call; [ ] = dose if it differs, or a comment. % is scaled to controls: 0 for no effect and ±100 for the full control effect; potency is read from the fitted curve at half-maximal effect. Rows were taken by chance, and some 0.53% of all compounds hit somewhere here.

For O=C(NCc1cccnc1-n1cccn1)c1cccc(NC(=O)c2cccs2)c1 the results were StopGo RLuc 21% and 2A firefly 14%.
`CCCn1c(NC(=O)CCc2nnc(-c3ccccc3)o2)nc2ccccc21` gave StopGo RLuc -7% and 2A firefly -3%.
For O=[N+]([O-])c1cc(Cl)cc2cccnc12 the results were StopGo RLuc 10% and 2A firefly 0%.
Screening COC(=O)c1cc(N2CCOCC2)ccc1N returned StopGo RLuc -4% and 2A firefly -3%.
`COC(=O)c1cc(OC)c(Br)c(OC)c1` gave StopGo RLuc -2% and 2A firefly 5%.
Screening Cc1ccc(N(Cc2ccco2)C(=O)CCc2ncc(-c3c(F)cccc3F)o2)cc1 returned StopGo RLuc 16% and 2A firefly 31%[activator].
`Cc1sc2ncn(CC(=O)NCc3ccc(CN4CCC(C)CC4)cc3)c(=O)c2c1C` gave StopGo RLuc 0% and 2A firefly 7%.
For CCCN(CCC)C(=O)Cn1c(=O)n(-c2cccc(C)c2)c(=O)c2c1c1cc(OC)ccc1n2C the results were StopGo RLuc 0% and 2A firefly -11%.
Screening COc1cccc(-c2c(NC(=O)c3cccs3)oc3ccccc3c2=O)c1 returned StopGo RLuc -8% and 2A firefly 0%.
CC(C)CCNC(=O)N1CCN(S(=O)(=O)c2ccc3c(ccn3C)c2)CC1 was read as StopGo RLuc 2% and 2A firefly -1%.
For CC(=O)c1cccc(NC(=O)C(Cc2ccccc2)NS(=O)(=O)c2ccc(Br)s2)c1 (stereo not given) the results were StopGo RLuc 11% and 2A firefly -10%.
Screening Cc1cccc(N2CCN(C(=O)c3cc4ccc(F)cc4nc3C)CC2)c1 returned StopGo RLuc 8% and 2A firefly 26%.
Cc1cccc(C(=O)NNC(=S)NC(=O)/C=C/c2ccccc2)c1 was read as StopGo RLuc -15% and 2A firefly 46%[activator].
Cc1cccc(Cc2cnc(NC(=O)C3Cc4ccc(C)cc4C(=O)O3)s2)c1 (stereo not given) was read as StopGo RLuc 17% and 2A firefly 28%.
Screening COc1cc2ccccc2cc1C(=O)Nc1cc(-c2nc3ccccc3o2)ccc1C returned StopGo RLuc 11% and 2A firefly 0%.
CC(=O)Nc1ccc(NC(=O)c2cc[n+]([O-])cc2)cc1 was read as StopGo RLuc 5% and 2A firefly 4%.
`O=C(O)c1ccc(F)cc1I` gave StopGo RLuc 2% and 2A firefly 14%.
`O=C1C=C(c2ccccc2)C/C1=C\c1ccccc1` gave StopGo RLuc 3% and 2A firefly 0%.
C[C@H](N)[C@H](O)c1cccc(O)c1 was read as StopGo RLuc -13% and 2A firefly -7%.
Cc1nc2ncnn2c(C)c1CCC(=O)Nc1cccc(S(=O)(=O)N2CCCC2)c1 was read as StopGo RLuc -4% and 2A firefly 5%.
For CC(=O)c1cc(F)ccc1Oc1nc(C)nc2sc3c(c12)CCC3 the results were StopGo RLuc 7% and 2A firefly 10%.
`COc1cccc(CNC(=O)C2CCCN(c3nnc(-n4c(C)ccc4C)s3)C2)c1` (stereo not given) gave StopGo RLuc 13% and 2A firefly 0%.
`CCOC(=O)c1ccccc1NC(=O)CN1CCCN(Cc2cc(C)ccc2C)S1(=O)=O` gave StopGo RLuc -11% and 2A firefly 4%.
`CCOC(=O)C1C(=O)C=C(c2ccccc2)CC1c1ccc(Br)cc1` (stereo not given) gave StopGo RLuc 15% and 2A firefly 17%.
`CC(=O)c1c(C)[nH]c(C(=O)C(C)OC(=O)c2ccc(F)c(F)c2)c1C` (stereo not given) gave StopGo RLuc 3% and 2A firefly -9%.
Screening Cc1ccc(N2CCN(c3nc4c(S(=O)(=O)c5ccc(C)c(C)c5)nnn4c4ccccc34)CC2)c(C)c1 returned StopGo RLuc -9% and 2A firefly -12%.
`CC(C)Sc1ccc2ccccc2n1` gave StopGo RLuc -10% and 2A firefly 23%.
CC(C)CC(NC(=O)C1CC1)c1cccs1 (stereo not given) was read as StopGo RLuc 7% and 2A firefly 10%.
Cc1oc2cc(OCCN3CCN(CCO)CC3)ccc2c(=O)c1-c1ccc(Cl)cc1 was read as StopGo RLuc -21% and 2A firefly 0%.
For Cc1cccc(NC(=O)CCn2cnc3c2c(=O)n(C)c(=O)n3C)c1C the results were StopGo RLuc 2% and 2A firefly 12%.
`Cc1ccc(NC(=O)Cn2ncc3c4ccccc4n(Cc4ccccc4)c3c2=O)cc1Cl` gave StopGo RLuc -4% and 2A firefly -16%.
Screening NC(Cc1ccc(F)cc1)C(=O)O (stereo not given) returned StopGo RLuc -2% and 2A firefly 0%.
For COc1cc(-c2noc(-c3ccc(S(=O)(=O)N4CCOCC4)o3)n2)ccc1OC(C)C the results were StopGo RLuc -4% and 2A firefly 17%.
`Cc1ccc(NC(=O)Cn2c(=O)n(Cc3ccc4c(c3)OCO4)c(=O)c3ccccc32)c(C)c1` gave StopGo RLuc 1% and 2A firefly -9%.
For COc1cc(Cl)c(NC(=O)CCc2nc3cccnc3n2-c2ccccc2)c(OC)c1 the results were StopGo RLuc -4% and 2A firefly 10%.
Cc1cccc(C)c1OCCNC(=O)c1n[nH]c(=O)c2ccccc12 was read as StopGo RLuc -4% and 2A firefly 5%.
For COC(=O)[C@]12C[C@H](CC(=O)NCCc3ccccc3OC)C(=O)N(Cc3ccco3)C1=C[C@H](COCc1ccccc1)O[C@@H]2C the results were StopGo RLuc 0% and 2A firefly -5%.
O=C(NCc1cccc(C(F)(F)F)c1)c1n[nH]c2c1CCCC2 was read as StopGo RLuc 5% and 2A firefly 190%[activator].
O=C1c2oc3ccccc3c(=O)c2C(c2cccc(Cl)c2)N1c1ccccn1 (stereo not given) was read as StopGo RLuc -7% and 2A firefly 19%.
`CCOC(=O)c1[nH]c(C)c(C(=O)NCc2cccc(OC)c2)c1C` gave StopGo RLuc 1% and 2A firefly -11%.
COc1cccc(OC)c1C(=O)Nc1nnc(C(F)(F)F)s1 was read as StopGo RLuc 7% and 2A firefly 14%.
`O=C(NCC1CCCO1)c1cc(Cl)c2c(c1)OCCO2` (stereo not given) gave StopGo RLuc -1% and 2A firefly 0%.
For CCOc1ccc(CCNc2ncnc3onc(C)c23)cc1OCC the results were StopGo RLuc 2.5µM* and 2A firefly 3.2µM*.
`COc1ccc(NC(=O)C2CCCN(S(=O)(=O)c3c(C)[nH]c(=O)[nH]c3=O)C2)cc1Cl` (stereo not given) gave StopGo RLuc -12% and 2A firefly -16%.
Screening CC(=O)SC(CC(=O)c1ccccc1)c1ccccc1 (stereo not given) returned StopGo RLuc 2% and 2A firefly 0%.
Cc1c(Cl)cccc1NC(=O)CSc1nc(=O)n(Cc2ccco2)c2c1CCC2 was read as StopGo RLuc 263%[activator] and 2A firefly -10%.
For N#Cc1ccccc1OCC(=O)c1ccc(NC(=O)c2ccccc2)cc1 the results were StopGo RLuc 34% and 2A firefly 0%.
For Cc1ccc(S(=O)(=O)NCc2ccc(C(=O)N3CCN(c4cc(C)ccc4C)CC3)cc2)cc1 the results were StopGo RLuc -7% and 2A firefly -9%.
`O=C(NCc1ccc(Cl)cc1)c1cc2ccccc2o1` gave StopGo RLuc -4% and 2A firefly 60%[activator].
Cc1cc(C)c(C)c(OCC(=O)NCc2nc(-c3ccc(Cl)cc3)no2)c1 was read as StopGo RLuc -6% and 2A firefly -12%.
For Cc1ccc(CN(C)CC(=O)Nc2ccc(C(F)(F)F)cc2)cc1 the results were StopGo RLuc 1% and 2A firefly -3%.
Screening O=C(CCc1c[nH]c2ccccc12)Nc1ccc(F)c(Cl)c1 returned StopGo RLuc -8% and 2A firefly 26%.
Screening COc1ccc(NC(=O)Cn2c(=O)n(Cc3ccco3)c(=O)c3sc4ccccc4c32)cc1OC returned StopGo RLuc -13% and 2A firefly -17%.
`Nc1nc2c(s1)C(c1ccccc1Cl)CC(=O)N2` (stereo not given) gave StopGo RLuc -5% and 2A firefly 9%.
`COC(=O)c1ccc(Oc2c(C)oc3cc(OCc4ccccc4)ccc3c2=O)cc1` gave StopGo RLuc -2% and 2A firefly 14%.
`Cc1nn(-c2ccc(Cl)nn2)c2c1C(c1ccc(OCC(N)=O)cc1)CC(=O)N2` (stereo not given) gave StopGo RLuc 2% and 2A firefly -5%.
Cc1ccccc1OCC(=O)Nc1ccc(-c2nc3ncccc3o2)cc1 was read as StopGo RLuc -5% and 2A firefly 8%.
For CCc1ccc(CNC(=O)c2ccc3nc(SCc4ccc(F)cc4)n(C)c3c2)cc1 the results were StopGo RLuc 33%[activator] and 2A firefly -3%.
Screening Cc1c(CC(=O)NCc2ccc(F)cc2)c(=O)oc2cc(O)c(Cl)cc12 returned StopGo RLuc 4% and 2A firefly -11%.
For CC(C)c1nn2c(=O)cc(COC(=O)COc3ccccc3Cl)nc2s1 the results were StopGo RLuc -3% and 2A firefly 8%.

No new results follow: an excerpt of the list.
`Nc1nc2c(s1)C(c1ccccc1Cl)CC(=O)N2` (stereo not given) gave StopGo RLuc -5% and 2A firefly 9%.
`COC(=O)c1ccc(Oc2c(C)oc3cc(OCc4ccccc4)ccc3c2=O)cc1` gave StopGo RLuc -2% and 2A firefly 14%.
`Cc1nn(-c2ccc(Cl)nn2)c2c1C(c1ccc(OCC(N)=O)cc1)CC(=O)N2` (stereo not given) gave StopGo RLuc 2% and 2A firefly -5%.
Cc1ccccc1OCC(=O)Nc1ccc(-c2nc3ncccc3o2)cc1 was read as StopGo RLuc -5% and 2A firefly 8%.
For CCc1ccc(CNC(=O)c2ccc3nc(SCc4ccc(F)cc4)n(C)c3c2)cc1 the results were StopGo RLuc 33%[activator] and 2A firefly -3%.
Screening Cc1c(CC(=O)NCc2ccc(F)cc2)c(=O)oc2cc(O)c(Cl)cc12 returned StopGo RLuc 4% and 2A firefly -11%.
For CC(C)c1nn2c(=O)cc(COC(=O)COc3ccccc3Cl)nc2s1 the results were StopGo RLuc -3% and 2A firefly 8%.

(cont.)
Screening Cc1ccc(C)c(NC(=O)c2nnn(CC(=O)Nc3cccc(C)c3C)c2N)c1 returned StopGo RLuc -8% and 2A firefly -14%.
`CCOC(=O)c1ccc(N2C(=O)c3[nH]nc(-c4ccc(OC)cc4)c3C2c2ccccc2Cl)cc1` (stereo not given) gave StopGo RLuc -10% and 2A firefly -13%.
Screening CCOC(=O)c1c(NC(=O)C(C)Sc2cn(CCNC(=O)c3ccc(OC)cc3)c3ccccc23)sc2c1CCC2 (stereo not given) returned StopGo RLuc 1% and 2A firefly 3%.
For CC1=C(C(=O)Nc2ccc(C)cc2C)C(c2sccc2C)n2ncnc2N1 (stereo not given) the results were StopGo RLuc -14% and 2A firefly -14%.
Screening CCOCCc1nnc(NC(=O)C(=O)c2cc(C)n(-c3cccc(C)c3)c2C)s1 returned StopGo RLuc 1% and 2A firefly 2%.
CC(C)NS(=O)(=O)c1ccc(NC(=O)C2c3ccccc3Oc3ccccc32)cc1 was read as StopGo RLuc 35%[activator] and 2A firefly 3%.
`Cc1ccc(C)c(NC(=S)N/N=C/C2=CCC3CC2C3(C)C)c1` (stereo not given) gave StopGo RLuc -14%[1.06 µM] and 2A firefly 7%.
`CCOC(=O)C1=C(Nc2ccccc2)O/C(=C\c2c(F)cccc2F)C1=O` gave StopGo RLuc 1% and 2A firefly 17%.
For Cc1scc(C(=O)NCC2CCCCC2)c1C the results were StopGo RLuc 38%[activator] and 2A firefly 197%[activator].
Cc1cccc(OCCSc2nc3ccccc3n2CC(=O)N2CCOCC2)c1C was read as StopGo RLuc 12% and 2A firefly 10%.
Cc1ccc(Nc2nc(CN3CCN(S(=O)(=O)c4ccccc4C(F)(F)F)CC3)cs2)cc1 was read as StopGo RLuc inconclusive and 2A firefly inconclusive.
`Cc1cc(S(=O)(=O)Nc2ccc(F)cc2)ccc1OCC(=O)NCc1ccc2c(c1)OCO2` gave StopGo RLuc 89%[activator] and 2A firefly -30%.
For C=CCc1ccccc1OCC(O)CNC(C)C (stereo not given) the results were StopGo RLuc -16% and 2A firefly -8%[11.5 µM].
CCCC1CCC(c2ccc(-c3ccc(OC(F)F)c(F)c3)cc2)CC1 (stereo not given) was read as StopGo RLuc 8% and 2A firefly 20%.
Cc1ccccc1C(=O)N(C)[C@H]1C[C@H]2c3[nH]c4c(-c5ccc6c(c5)OCO6)cccc4c3CCN2C[C@H]1[C@H](C)O was read as StopGo RLuc -15% and 2A firefly -24%.
Cc1nn(C)cc1CN(C)C(=O)c1cc(-c2ccccc2)nc2ccc(Br)cc12 was read as StopGo RLuc 53%[activator] and 2A firefly 32%.
Screening CC(C)C(=O)NCCNC(=O)c1ccc2ccccc2n1 returned StopGo RLuc -1% and 2A firefly 96%[activator].
Screening CCOC(=O)N1CCN(C(=O)[C@H](C)NC(=O)c2cc3cc(OC)ccc3n2C)CC1 returned StopGo RLuc 8% and 2A firefly 19%.
For NC(=O)CSc1n[nH]c2nc3c(c(=O)n12)C1(CCCCC1)Cc1ccccc1-3 the results were StopGo RLuc -8% and 2A firefly -4%.
For O=C(Nc1ccc(N2CCC(c3ccccc3)C2)c(C(=O)O)c1)c1ccccc1 (stereo not given) the results were StopGo RLuc 4% and 2A firefly 0%.
Fc1ccc(CNC(=S)NCc2ccccc2Br)cc1 was read as StopGo RLuc 187%[activator] and 2A firefly 28%.

3 records drawn at random from the list so far, as already listed:
Screening CCOCCc1nnc(NC(=O)C(=O)c2cc(C)n(-c3cccc(C)c3)c2C)s1 returned StopGo RLuc 1% and 2A firefly 2%.
Cc1nn(C)cc1CN(C)C(=O)c1cc(-c2ccccc2)nc2ccc(Br)cc12 was read as StopGo RLuc 53%[activator] and 2A firefly 32%.
Screening Cc1ccc(C)c(NC(=O)c2nnn(CC(=O)Nc3cccc(C)c3C)c2N)c1 returned StopGo RLuc -8% and 2A firefly -14%.
